# Bioassay records from PubChem.
# UUG fidelity = alters start codon recognition fidelity in yeast. AID 602363. hit rate 0.13% among 350,000. S. cerevisiae UUG-firefly luciferase reporter, luminescence/redox ratio. activity score, % at 18.7 µM;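 active means replicate mean at a twofold rise or more, about +100% in these data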;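 further: firefly luciferase made from a UUG start codon reports start codon fidelity; reporter light over untreated wells divided by growth signal over untreated wells; some hits fall short of that in this replicate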
# Rce1 inh = inhibitors of yeast Ras-converting enzyme; Q03530; yeast membranes, quenched prenylated peptide cleavage fluorescence; calls only; hit rate 0.27% among 290,000;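 active means fall in fluorescence gain of 50% or more versus controls, with final raw signal at or below 3038400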;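 further: plate controls were neutral control wells for no effect and wells lacking membranes for full effect; tested at 10 µM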
# CSC inhib = cancer stem cell inhibition; inhibition, % at 7.5 µM; cancer stem cell-like cells viability, luminescence; hit rate 1.1% among 300,000; AID 2717;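 active means mean at 75% or more and at least half the replicates too; tested in HMLE shEcad cells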;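 further: 0% = median of negative and 100% = median of positive control wells; the first replicate is given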
# eIF4H FP inh = inhibitors of RNA binding by human eIF4H. Q15056. eIF4H fluorescence polarization binding assay. inhibition, % at 35 µM. hit rate 0.94% among 290,000. AID 2012;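 active means 50% or more with normal probe brightness, or confirmed in later tests; about a fifth of its hits are not listed in these tables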;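 further: calls also rest on retests at 20 µM and on dose response follow-up; 0% = protein and probe with vehicle and 100% = probe without protein; strong numbers were not always called active; many hits fall short of the cut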
# Env fusion inh = inhibitors of HIV Env-mediated cell fusion | inhibition, % at 12.3 µM | hit rate 1.1% among 360,000 | HeLa-JRFL Env/CEM21 cell fusion, luciferase;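 active means mean replicate inhibition score of at least 50 and every replicate individually at or above 50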;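 further: 0% = plate neutral controls and 100% = maraviroc near 300 nM; one replicate is shown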
# PABP FP inh = PABP-poly(A) binding inhibition. PABP-poly(A) RNA binding, fluorescence polarization. inhibition, % at 35 µM. hit rate 1% among 290,000. AID 2014;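 active means 50% or more with normal probe brightness, or confirmed in later tests; about a fifth of its hits are not listed in these tables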;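 further: calls also rest on retests at 20 µM and on dose response follow-up; controls were probe without protein and protein plus probe with vehicle; some compounds called inactive have numbers as strong as hits; many hits fall short of the cut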
# Target sequence (P11940 whole entry, looked up): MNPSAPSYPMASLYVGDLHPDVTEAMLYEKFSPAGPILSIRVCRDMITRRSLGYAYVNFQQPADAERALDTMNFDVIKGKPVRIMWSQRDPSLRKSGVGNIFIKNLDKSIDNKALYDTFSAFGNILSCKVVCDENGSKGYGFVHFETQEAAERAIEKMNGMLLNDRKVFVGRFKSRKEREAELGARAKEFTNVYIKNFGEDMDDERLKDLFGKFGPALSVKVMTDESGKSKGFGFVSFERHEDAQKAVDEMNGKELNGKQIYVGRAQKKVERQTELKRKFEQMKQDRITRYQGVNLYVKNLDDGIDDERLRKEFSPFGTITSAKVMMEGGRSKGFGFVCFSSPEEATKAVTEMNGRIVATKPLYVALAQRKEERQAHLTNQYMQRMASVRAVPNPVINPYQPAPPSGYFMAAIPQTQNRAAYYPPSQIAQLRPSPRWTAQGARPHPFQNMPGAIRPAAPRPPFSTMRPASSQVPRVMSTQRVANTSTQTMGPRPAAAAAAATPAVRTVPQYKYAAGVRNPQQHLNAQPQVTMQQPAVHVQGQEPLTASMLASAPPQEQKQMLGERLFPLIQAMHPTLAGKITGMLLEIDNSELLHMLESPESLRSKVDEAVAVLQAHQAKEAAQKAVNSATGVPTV
# MT1-MMP act inh = blocks activation of human MT1-MMP; P50281; HT1080 RFP-PRO-GFP cells, GFP/RFP ratio fluorescence, overnight; percent of plate control window, DMSO zero; GFP/RFP ratio change, % at 20 µM; hit rate 0.061% among 360,000;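 active means GFP/RFP ratio change of at least 30% with cell ATP level not reduced by more than half and red fluorescence within 50% of control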; further: strong numbers were not always called active
#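 system = RFP-PRO-GFP reporter HT1080 cells | dosing = 20 µM single dose, 1% DMSO | timing = overnight cell settling, then overnight compound exposure, 37 °C, 5% CO2 | read-out basis = GFP/RFP fluorescence ratio | controls = DMSO and RFP-L50D-GFP cell wells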
# eIF4H FP inh retest = also measured in eIF4H FP inh; calls as there; inhibition, %; compound at 20 µM; confirmation average;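 mean of two retest wells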
# PABP FP inh retest = further read-out of PABP FP inh, marked with its call; inhibition, %; compound at 20 µM; confirmation repeats;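 mean of two retest wells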
# MT1-MMP act inh RFP = second read-out of MT1-MMP act inh, no call of its own (marks repeat the call); RFP signal change, %; measured here: RFP expression control read;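 0 = vehicle wells; hits needed this value within 50% of zero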
# * = called active by the depositor; i = inactive; . = no result given.
SMILES,UUG fidelity,Rce1 inh,CSC inhib,eIF4H FP inh,Env fusion inh,PABP FP inh,MT1-MMP act inh,MT1-MMP act inh RFP,others
CC(C)CCNC(=O)C1CC2Cn3c(nc4cc(Cl)c(Cl)cc43)C2N1C (stereo not given),-11,i,10,.,18,.,2,-5,
Cc1ccccc1NCCC(=O)Nc1ccc(F)cc1,-15,i,4,0,-5,-5,-1,2,
Cc1cccc2cc(CNCC3CCCO3)c(Cl)nc12 (stereo not given),.,i,-14,5,-2,5,-2,-1,
CCCOC(=O)Nc1ccc(N2CCCCC2)cc1,-27,i,0,2,-149,5,6,0,
COc1ccc(Cn2c(C)c(C)c(C#N)c2NC(=O)Nc2ccc(Cl)cc2)cc1,-16,i,47,4,-134,-13,1,2,
O=C(Nc1cc(S(=O)(=O)N2CCOCC2)ccc1Cl)c1cc([N+](=O)[O-])ccc1Cl,-7,.,51,.,.,.,-1,-2,
Clc1cccc(N2CCN(Cc3nc(-c4ccccc4)no3)CC2)c1,15,i,16,-10,7,-11,0,1,
C[C@H](NS(=O)(=O)c1ccc(F)cc1)C(=O)OCC(=O)c1c(N)n(C)c(=O)n(C)c1=O,0,.,8,.,-4,.,2,0,
C/C(=N/OCO/N=C(/C)c1ccc(F)cc1)c1ccc(F)cc1,-21,i,15,-2,4,0,.,.,
CCc1nc2c(OCC(N)=O)cccn2c1N(C)C(=O)C(C)C,-18,.,.,.,1,.,-2,7,
Cc1ccccc1CSc1nnc(C)c(=O)n1N,.,i,-10,6,3,9,-2,2,
Cc1c(Cl)c([N+](=O)[O-])nn1CCCC(=O)Nc1sc2c(c1C#N)CCC2,.,i,48,4,.,-9,2,5,
O=C(Nc1ccccc1Cl)C(Cl)C(=O)c1ccccc1 (stereo not given),-24,.,.,8.0*,-8,69,1,3,eIF4H FP inh retest=54*;PABP FP inh retest=28
CC(C)N(C(=O)CSc1nnc(CSc2ncccn2)n1C)C(C)C,-22,i,-9,-1,-5,1,0,-1,
COc1ccc(C)cc1N(CC(=O)O)S(=O)(=O)c1ccc(C)cc1,-6,i,.,-2,-4,-5,0,4,

# Nothing new here: an excerpt of the list.
SMILES,UUG fidelity,Rce1 inh,CSC inhib,eIF4H FP inh,Env fusion inh,PABP FP inh,MT1-MMP act inh,MT1-MMP act inh RFP,others
CC(C)CCNC(=O)C1CC2Cn3c(nc4cc(Cl)c(Cl)cc43)C2N1C (stereo not given),-11,i,10,.,18,.,2,-5,
Cc1ccccc1NCCC(=O)Nc1ccc(F)cc1,-15,i,4,0,-5,-5,-1,2,
Cc1cccc2cc(CNCC3CCCO3)c(Cl)nc12 (stereo not given),.,i,-14,5,-2,5,-2,-1,

# Continued.
SMILES,UUG fidelity,Rce1 inh,CSC inhib,eIF4H FP inh,Env fusion inh,PABP FP inh,MT1-MMP act inh,MT1-MMP act inh RFP,others
CC(C)n1c(SCC(=O)Nc2ccccc2N2CCOCC2)nc2c1c(=O)n(C)c(=O)n2C,-6,i,-19,-12,.,20,-2,-3,
CN(C)c1ccc(C(CC(=O)O)NC(=O)c2ccc(Cl)cc2)cc1 (stereo not given),-19,i,2,-13,.,12,4,7,
Cc1ccc(C(=O)NC(=S)N2CCN(C(=O)OC(C)(C)C)CC2)cc1Br,.,i,22,-3,-5,15,18,5,
CCSc1nc2c(c(=O)[nH]c(=O)n2C)n1C,-11,i,0,-6,-117,-7,-1,2,
Cc1ccc(C(=O)N2C(=O)c3cccc(N)c3C2=O)o1,-19,i,13,12,9,8,-3,5,
COc1ccc(-c2cc(C(F)(F)F)nc(S(C)(=O)=O)n2)cc1OC,-17,i,94*,4,-176,2,2,-9,
COc1ccccc1C(=O)Nc1ccnn1C1CCN(CCCc2ccccc2)CC1,-4,i,-7,0,1,-2,-1,0,
COc1ccccc1CNS(=O)(=O)c1cc(CN2C(=O)c3cccnc3C2=O)ccc1OC,3,i,-35,-5,-25,-6,-3,2,
CCCCn1nnnc1SCC(=O)NCc1ccccc1,-45,i,19,-9,-38,-6,3,2,
CCc1nc2ccc(C(=O)NCc3ccccc3OC)cn2c1N(CC)CCOC,-18,.,.,.,4,.,-6,-5,
COc1ccc(C(=O)NC2CCN(S(=O)(=O)c3ccc(C)cc3)CC2)cc1,-18,.,-19,-6,-1,10,1,-2,
Cc1ccc(C(=O)Nc2cc(Cl)ccc2Oc2ccccc2)cc1[N+](=O)[O-],-15,i,.,-6,-10,12,3,0,
COCCN1C(=O)N(C)[C@@H](c2ccccc2)C(C(C)=O)=C1C,0,i,-8,4,9,9,5,2,
O=C(CSCc1ccccc1Cl)NNC(=O)c1ccccc1,-8,i,2,6,18,-1,-6,-1,
COc1ccc(/C=C/C(=O)NCc2ccc(F)cc2)cc1S(=O)(=O)N1CCOCC1,18,i,-4,4,-1,-1,-2,0,

# The list goes on; the last 3 above are carried over.
SMILES,UUG fidelity,Rce1 inh,CSC inhib,eIF4H FP inh,Env fusion inh,PABP FP inh,MT1-MMP act inh,MT1-MMP act inh RFP,others
COCCN1C(=O)N(C)[C@@H](c2ccccc2)C(C(C)=O)=C1C,0,i,-8,4,9,9,5,2,
O=C(CSCc1ccccc1Cl)NNC(=O)c1ccccc1,-8,i,2,6,18,-1,-6,-1,
COc1ccc(/C=C/C(=O)NCc2ccc(F)cc2)cc1S(=O)(=O)N1CCOCC1,18,i,-4,4,-1,-1,-2,0,
O=C(Nc1nonc1NC(=O)C1CCCCC1)C1CCCCC1,-10,i,10,3,11,-1,-3,-1,
COc1ccccc1/C=C1\SC(=S)N(C(C(=O)O)c2ccccc2)C1=O (stereo not given),.,i,12,-8,-26,-3,3,-1,
Cc1ccc(NC(=O)CSc2nc3c([nH]c4ccccc43)c(=O)n2C)cc1,-18,i,15,2,11,16,1,2,
CC/C(C)=N/Nc1nc2c(c(=O)[nH]c(=O)n2C)n1CCc1ccccc1,.,i,-4,1,-8,5,3,4,
CN(C)c1ccc(/C=N/Nc2ccc(-n3ccnc3)nn2)cc1,-24,i,-2,0,.,19,3,4,
CCN1CCN(c2ccc(NC(=O)COc3ccccc3Cl)cc2)CC1,-3,i,.,1,11,-7,4,2,
CC(C)c1ccc(N(CC(=O)NCc2ccc(F)cc2)C(=O)c2snc(C(N)=O)c2N)cc1,-7,i,.,-6,6,-4,0,-3,
CCc1ccc(OCC(=O)NCC(c2ccc(Cl)cc2)N2CCCCC2)cc1 (stereo not given),-18,i,2,-6,74*,10,0,-1,
COc1ccccc1CNC(=O)COC(=O)c1cc(C)nc2ccccc12,10,.,15,.,.,.,2,-3,
CCN(CC)C(=O)CSc1ccc(C(F)(F)F)cc1[N+](=O)[O-],.,i,-8,-8,-21,-17,0,1,
COc1ccc(OC)c(NC(=O)Cn2c(CCC(=O)O)ccc2-c2ccc(C)cc2)c1,.,i,0,1,-114,20,-2,0,
CCCCN(C(=O)C1CC(=O)N(c2ccc3c(c2)OCCO3)C1)c1c(N)n(CCC)c(=O)[nH]c1=O (stereo not given),2,.,-29,.,1,.,-1,4,
O=C1C=C(NC2CC2)C2(CCCCC2)O1,-8,i,.,0,.,2,1,5,
CCN(CC)C(=O)CCCSc1nnc(Nc2ccccc2F)s1,.,i,.,6,-24,20,2,0,
COc1cccc(N(CC(=O)Nc2ccccc2C)S(C)(=O)=O)c1,-10,i,9,2,.,4,-3,-7,
CCc1cccc(NC(=O)COC(=O)CSc2ccc(C)cc2)c1,-4,.,.,.,11,.,3,4,
CCOC(=O)N1CCN(Cc2cc(=O)oc3ccc4ccccc4c23)CC1,-21,i,0,17,.,19,-4,-11,
CN(CC(=O)Nc1cccc(F)c1)C(=O)c1ccncc1,-9,i,7,5,21,6,0,2,
COc1cc(/C=C2\SC(=Nc3ccccc3OC)NC2=O)ccc1O,-17,i,58,18,-16,-16,-105,-13,
Cc1nnc(NC(=O)CSc2nnc(-c3ccco3)o2)s1,.,i,-18,0,.,4,2,6,
COc1cc(/C=N/NC(=O)CNC(=O)c2ccncc2)ccc1O,-8,i,-27,-5,-13,0,1,4,
COc1ccc(N2CCN(C(c3ccco3)c3sc4nc(C)nn4c3O)CC2)cc1 (stereo not given),.,i,-6,10,-2,0,1,2,
CN(C)S(=O)(=O)c1cccc(NC(=S)NNC(=O)c2cc3ccccc3cc2O)c1,-30,.,33,.,.,.,15,-2,
COc1ccc(OC)c(NC(=O)c2cccc(NC(=O)c3ccccc3)c2)c1,-6,i,1,-18,-70,1,0,-1,
O=C(N/N=C\C=C\c1ccco1)C1COc2ccccc2O1 (stereo not given),-18,i,-6,50,-15,25,0,4,
CC(C)NC(=O)C1(O)c2ccccc2NC(=O)N1c1ccc(Cl)c(Cl)c1 (stereo not given),.,i,-7,3,-72,6,1,3,
COc1ccc(C2C(C(=O)Nc3cc(OC)c(OC)c(OC)c3)c3ccccc3C(=O)N2C)cc1 (stereo not given),0,i,.,-4,-183,6,3,-7,
CC(C)C[C@H](N)c1cn([C@@H](Cc2cc3ccccc3[nH]2)C(=O)N2CCNCC2)nn1,2,i,-4,5,-6,23,2,3,
COc1ccccc1-c1nc2s/c(=C\c3cccs3)c(=O)n2n1,-9,i,-1,5,-149,-11,-3,0,
O=C(COC(=O)Cn1cnc2ccccc2c1=O)Nc1ccc(Cl)cc1,.,i,16,-12,-25,-10,6,4,
NC(c1csc(NC(=O)Nc2cccc(C(F)(F)F)c2)n1)C1CCCCC1 (stereo not given),-17,.,.,.,61*,.,-15,-7,
COc1ccc(N(CC(=O)N/N=C/c2ccc(-c3ccc([N+](=O)[O-])cc3)o2)S(=O)(=O)c2ccc(C)cc2)cc1Cl,.,i,8,6,.,11,-7,-1,
COc1cc(C(O)c2nc(-c3csc4ccccc34)cs2)ccc1F (stereo not given),-12,.,.,.,32,.,-3,-3,
Cc1ccc(N/C(N)=N/c2nc(C)cc(N3CCCCC3)n2)c(C)c1,.,i,7,-18,9,-2,-7,-23,
O=C(NCCc1c[nH]c2ccccc12)C(=O)NCC1OCCCN1S(=O)(=O)c1cccs1 (stereo not given),.,i,.,9,2,10,0,-2,
Nc1ccc(C(=O)OCC(=O)Nc2cc([N+](=O)[O-])ccc2F)cc1,-6,i,-5,10,-6,8,-2,-1,
COC(=O)c1cccc(NC(=O)C23CC4CC(C2)CC(n2cncn2)(C4)C3)c1,-22,i,-5,0,-41,-8,1,5,
CCn1c(SCC(=O)N2CCC(C)CC2)nc2c(c1=O)SC(C)C2 (stereo not given),3,i,-14,-11,.,-10,-5,-3,
COc1ccccc1CNc1ccc(C(=O)O)cc1,-19,i,10,-3,15,6,5,5,
CC1CCC/C(=N\NC(=O)c2ccncc2)C1 (stereo not given),1,i,-3,6,4,-9,2,2,
Cc1cc(OCC(=O)O/N=C(\N)Cc2cccs2)ccc1Br,-12,i,11,-1,.,2,-5,-4,
O=C(CCN1C(=O)COc2ccccc21)NCCN1CCOCC1,50,i,3,-6,.,4,22,1,
O=C(Nc1ccccc1)C(=O)c1cn(CC(=O)N2CCCCC2)c2ccccc12,.,i,0,3,17,14,-2,4,
Cc1c(C(=O)NCc2cccc(C(F)(F)F)c2)sc(=O)n1Cc1ccc(S(=O)(=O)N(C)C)cc1,-9,.,.,.,12,.,-8,-17,
CC(C)C(=O)Nc1c2c(nc3c1CCC3)CCCC2,-12,i,.,-7,.,-14,5,3,
Cc1ccccc1-c1ccc(=O)n(CC(=O)Nc2ccc(C(=O)N3CCCC3)cc2)n1,-6,i,17,1,-18,-4,-7,-4,
Cc1cc(NS(=O)(=O)c2ccc(NC(=S)NC(=O)/C=C/c3ccccc3)cc2)no1,-8,i,8,3,-6,6,-2,0,
CCOC(=O)c1cnn(-c2ccccc2)c1NC(=O)CCl,.,i,-11,0,3,16,0,3,
COCCOC(=O)C1=C(C)NC(=O)NC1C1CC=CCC1 (stereo not given),3,i,-14,-8,.,7,-6,4,

# Some of the compounds tested; count on the stated rates, not on these rows.
